ClpP mod: qHTS Assay for Activators of ClpP; AID 651965, 2013; purified B. subtilis ClpP, FRET peptide cleavage, 20 min; Potency, µM (titrated, usually from 57.5 µM), for inactives: top-dose activity change, negative = active; 340,000 compounds, 1.9% hits; ATP-dependent Clp protease proteolytic subunit (Bacillus subtilis (strain 168)), P80244; active = well fitted falling curve with a large enough effect; inconclusive = small, poorly fitted or top-dose-only effect; inactive = no such curve, though single readings can be large or run the other way; further: the source files actives as falling curves though it sought activators and does not explain the sign; nearly all actives have a fitted effect of over 65% in size; many hits overshoot -100%
Target sequence (P80244 whole entry, looked up): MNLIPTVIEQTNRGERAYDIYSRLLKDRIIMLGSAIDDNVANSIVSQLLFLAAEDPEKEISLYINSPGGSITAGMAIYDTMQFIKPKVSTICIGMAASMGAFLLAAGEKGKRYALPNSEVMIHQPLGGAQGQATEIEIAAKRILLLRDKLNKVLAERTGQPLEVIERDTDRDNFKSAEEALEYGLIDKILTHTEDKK
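ClpP 10 microg/mL final, pH 8 Tris/KCl buffer with BSA, glycerol, Tween-20; compound pinned in; FRET-FV substrate; RT 20 min; Ex320/Em430; ΔFRET vs ADEP 5.8 microM, DMSO, no enzyme.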
* hit, by the source's call; ? = inconclusive. Potency means the concentration at half of the fitted maximal effect. Some of the compounds tested, so the mix of outcomes need not match the whole.

SMILES	ClpP mod
CCOc1ccc(S(=O)(=O)N2CCN(Cc3nc4ccc(C)cc4o3)CC2)cc1	-2.3%
CC(=O)c1ccc(S(=O)(=O)Nc2ccc(-c3ccc(N4CCCCCC4)nn3)cc2)cc1	-0.9%
Cc1cc(C)n2nc(CNS(=O)(=O)c3cccc(Cl)c3)nc2n1	-1.3%
COc1ccc(CC(=O)NCc2nc3cccnc3n2Cc2ccc(C)cc2)cc1OC	-0.4%
CC(C)Cc1nn2c(=O)cc(COC(=O)c3ccc4c(c3)OCO4)nc2s1	-2.3%
COCCCNC(=O)Cn1c(=O)n(CCCC(=O)NCc2ccc(C)cc2)c(=O)c2ccccc21	-5.0%
CCOC(=O)c1ccc(NC(=O)c2cc(=O)c3cc(CC)ccc3o2)cc1	5.9%
COC(=O)c1cc(S(=O)(=O)N2CCN(c3ccc(C)cc3C)CC2)cn1C	-0.6%
CCCCCn1c(CCNC(=O)c2ccc(F)cc2)nc2ccccc21	0.7%
CC(C)c1ccc(NC(=O)c2cn(C3CCCCC3)c(=O)c3c2c2ccccc2n3C)cc1	25µM*
Cc1ccc(NC(=O)CSc2nc3ccccc3n2CC(=O)N2CCC(C)CC2)cc1C	-6.7%
Cc1ccnc2c([N+](=O)[O-])cccc12	-0.4%
Cc1ccc(S(=O)(=O)N2CCN(c3nc(-c4cncs4)nc4ccccc34)CC2)cc1	4.0%
O=C(CSC1=Nc2ccccc2N=C(c2ccc(F)cc2)C1)NCc1ccccc1Cl	2.1%
COc1ccc(-n2nc(C(=O)O)c(=O)n(C)c2=O)cc1	4.4%
CCc1ccccc1NC(=O)c1ccc2c(c1)nnn2C1CCCC1	-2.6%
NC(=O)CSc1nc2cc3c(cc2c(=O)n1CCCCCC(=O)NCc1ccc2c(c1)OCO2)OCO3	-2.4%
O=C(C1CC1)N1CCc2cc(Br)cc(S(=O)(=O)N3CCN(c4cccc(Cl)c4)CC3)c21	-1.9%
CO[C@H]1C[C@@H]2CC[C@@H](C)[C@@](O)(O2)C(=O)C(=O)N2CCCC[C@H]2C(=O)O[C@H]([C@H](C)C[C@@H]2CC[C@@H](O)[C@H](OC)C2)CC(=O)[C@H](C)/C=C(/C)[C@@H](O)[C@@H](OC)C(=O)[C@H](C)C[C@H](C)C=C/C=C\C=C/1C	1.5%
COc1ccc(Cl)cc1N(C)C(=O)Cc1noc2ccc(C)cc12	-1.3%
CC(C)Oc1ccc(CNC(=O)C(C)n2ccc3cc(S(=O)(=O)N4CCCCCC4)ccc32)cc1 (stereo unspecified)	-11%
COc1ccc(Cl)cc1NC(=O)N1CCC2(CC1)Oc1ccccc1C(=O)N2Cc1ccc(F)cc1	-2.1%
CCOc1ccc(-n2nc(CO)c(C(=O)NCc3ccc(Cl)cc3)n2)cc1	7.1µM*
CCc1ccc(C(=O)CC2(O)C(=O)N(CCc3ccccc3)c3ccc(Br)cc32)cc1 (stereo unspecified)	0.9%
CCOc1ccc(OCC)c(NC(=O)C2CCN(S(=O)(=O)c3ccc(Br)s3)CC2)c1	1.1%
CCN(CC)c1cc2c(cc1F)c(=O)c(S(=O)(=O)c1cccc(C)c1)cn2C	4.8%
CCOC(=O)N1CCC(NC(=O)c2cnn(-c3ccc(C)cc3C)c2C2CCN(C(=O)OC(C)(C)C)CC2)CC1	0.2%
CCc1nn(CC(=O)Nc2ccc(C)c(F)c2)c(=O)c2cc3cc(C)ccc3n12	4.1%
O=C(NCc1ccc(Cl)cc1)c1ccc2c(Cl)c3c(nc2c1)CCCC3	-0.3%
COc1ccc(Nc2nc3ccccc3nc2NS(=O)(=O)c2ccc(C)cc2)c(OC)c1	-6.6%
c1cc2c(cc1Cc1cncc(Cc3ccc4c(c3)OCO4)c1)OCO2	-0.2%
Cc1cccc(Cn2c(-c3cccc(Br)c3)nc3ccccc32)c1	32µM*
CC(=O)c1cccc(Nc2c3c(nc4nc(-c5cccs5)nn24)CCCC3)c1	0.1%
COc1ccc(C(=O)Nc2nc3n(n2)C(c2ccc(Cl)cc2)C=C(c2ccccc2)N3)cc1OC (stereo unspecified)	-3.6%
Cc1cccc(N2CCN(C(=O)CCSCc3ccccc3F)CC2)c1C	-0.1%
COc1ccc(-c2nc3nc(C)cc(N4CCN(c5cccc(C(F)(F)F)c5)CC4)n3n2)cc1	-28%
Cc1cccc(Nc2c(-c3ccsc3)nc3nc(C)cc(C)n23)c1	19%
Cc1ccc(NC(=O)CCCn2c3ccccc3c(=O)c3cc(C)ccc32)c(Br)c1	?
CC(C)n1cnc(S(=O)(=O)N2CCCC(C(=O)NCc3ccccc3Cl)C2)c1 (stereo unspecified)	-1.5%
Cc1ccc(S(=O)(=O)C(CNC(=O)C(=O)NCCc2ccc(Cl)cc2)c2cccs2)cc1 (stereo unspecified)	-0.5%
COc1ccc(-n2cc(C(=O)NCc3ccccc3Cl)c3ccccc3c2=O)cc1	2.3%
Cc1ccc(Cl)cc1N1CCN(CCCNc2ncnc3onc(-c4ccc(F)cc4)c23)CC1	-0.2%
CCc1ccc(CN(Cc2ccco2)C(=O)c2cc(-c3ccc(C)c(F)c3)on2)cc1	0.0%
O=C(Nc1ccc(F)cc1)c1cc2cc3ccc(Cl)cc3nc2o1	-13%
COc1cc(N(C)C)c(OC)cc1C=O	-8.0%
CC1CN(C(=O)N2CCC(C(=O)NCc3ccco3)CC2)c2cc(Cl)ccc2O1 (stereo unspecified)	-0.8%
COC(=O)C(CCSC)Nc1ncnc2onc(-c3ccc(F)cc3)c12 (stereo unspecified)	0.1%
COC(=O)Cn1nc(C)c2c(C)n(-c3ccccc3)nc2c1=O	-6.0%
COc1ccc(N(C)C(=O)c2nc(-c3cccc(F)c3)n3c2CCCCC3)c(OC)c1	1.6%
Cc1ccc(C)c(CSc2nnc3[nH]c(=O)cc(C)n23)c1	-2.3%
CCNC(=O)CC1C(=O)N(c2ccc(F)cc2)C(=O)N1Cc1ccc(C)cc1 (stereo unspecified)	-0.5%
O=C(NCCc1nc2ccccc2n1CCOc1cccc2ccccc12)C1CCCCC1	1.1%
O=c1cc2nc(-c3cccs3)nc(SCCOc3ccc(Cl)cc3)n2[nH]1	4.0%
O=S(=O)(c1ccccc1)c1nc(-c2ccccc2)oc1N1CCN(c2cccc(Cl)c2)CC1	-22%
CCOC(=O)c1ccccc1NC(=O)N(C)CCc1c(C)nn(CC)c1C	-25%
CCc1ccccc1NC(=O)C1CCN(C2=NS(=O)(=O)C(c3ccc(C)c(C)c3)=C2C)CC1	1.6%
Cc1ccc(CCNS(=O)(=O)c2ccc3c(c2)CCN3C(=O)CCC(=O)O)cc1	0.5%
COc1cc(OC)c(NC(=O)Cn2cnc3nc4c(cc3c2=O)CCCC4)cc1Cl	-1.7%
Cc1cccc(CSc2ncc(Cl)c(C(=O)Nc3nnc(C)s3)n2)c1	-0.5%
Cc1cc(NC(c2nnc(-c3ccccc3)o2)c2ccccc2F)ccc1Br (stereo unspecified)	0.1%

The listing continues:
| compound | ClpP mod |
| --- | --- |
| CC1(C)Nc2cccc3c(N=Nc4ccc(N=Nc5ccccc5)c5ccccc45)ccc(c23)N1 | -24% |
| CCOc1ccccc1NC(=O)CN1C(=O)COc2ccc(S(=O)(=O)N3CCCCCC3)cc21 | -0.4% |
| CCOc1ccc(CNS(=O)(=O)c2cc3c(cc2C)NC(=O)CO3)cc1OC | 2.0% |
| COc1ccc(S(=O)(=O)N2Cc3ccccc3CC2C(=O)Nc2ccc(C)cc2)cc1OC (stereo unspecified) | 1.4% |
| COc1ccc(C2c3c(n(C)c4ccccc34)C(=O)N2CC(=O)Nc2cc(Cl)ccc2C)cc1 (stereo unspecified) | ? |
| CC(=O)c1cccc(NC(=O)C(C)n2c(=O)cc(-c3ccccc3)c3c(C)nn(C)c32)c1 (stereo unspecified) | ? |
| CCn1cc2nc(SCC(=O)Nc3cc(OC)ccc3OC)n(Cc3ccc(Cl)cc3)c(=O)c2n1 | -0.7% |
| Cc1nnc(SCc2cc(=O)n3cccc(C)c3n2)s1 | -2.7% |
| O=C1CN(C(=O)COc2ccc(Cl)cc2)C(c2ccc(F)cc2)c2cc(Br)ccc2N1 (stereo unspecified) | -0.8% |
| CCc1ccc(NS(=O)(=O)c2ccc3[nH]cc(C(=O)NCCc4ccccc4)c(=O)c3c2)cc1 | -1.8% |
| CC1CCCCN1C(=O)c1cnn2c1NC(=C1CC1)C=C2C(F)F (stereo unspecified) | -13% |
| CCN(C(=O)CSc1nc(-c2ccccc2)no1)c1ccccc1 | 0.1% |
| COc1cc(CNC(=O)c2cc3n(n2)CCCN(Cc2ccc(C)cc2)C3=O)cc(OC)c1OC | -3.4% |
| Cc1cc(=O)n(Cc2cccc(F)c2)c2c1c(C)nn2-c1cccc(F)c1 | -1.8% |
| CC1=Nc2cc(C(=O)NC3CCC(C)CC3)ccc2Sc2c(C)ccc(C)c21 (stereo unspecified) | 0.2% |
| COc1ccc(C2=C(C)C(N3CCC(C(=O)NCc4ccc(C)o4)CC3)=NS2(=O)=O)cc1 | -4.0% |
| Cc1ccc(NC(=O)Cn2c(=O)n(CCCCC(=O)NCc3ccccc3Cl)c(=O)c3ccccc32)cc1 | -2.0% |
| O=C(Cn1cc(SCc2ccc(Cl)cc2)c2ccccc21)N1CCCC1 | -7.7% |
| Cc1oc2ccc(O)c(CN3CCOCC3)c2c1C(=O)Nc1cccc(C(F)(F)F)c1 | -2.4% |
| CCOC(=O)CC(NC(=O)c1cc2c(=O)n3cccc(C)c3nc2s1)c1ccc(OCC(C)C)c(OC)c1 (stereo unspecified) | -13% |
| Cc1cc(-c2nc3ccccc3s2)ccc1NC(=O)c1cc(Cl)ccc1Cl | 2.1% |
| CCCCOC(=O)c1ccc(NC(=O)CC2NCCNC2=O)cc1 (stereo unspecified) | 0.6% |
| COc1ccc(-c2cc(C)no2)cc1S(=O)(=O)N1CCCC(C)C1 (stereo unspecified) | -1.1% |
| Fc1ccc(NCc2ccccc2-c2nnc(-c3ccccc3Cl)o2)cc1Cl | -3.6% |
| CCc1nnc(SCC(=O)Nc2cc(Cl)c(OC)cc2OC)c2cc3oc(C)cc3n12 | -4.7% |

A portion from the list above, for reference:
| compound | ClpP mod |
| --- | --- |
| CCOc1ccc(S(=O)(=O)N2CCN(Cc3nc4ccc(C)cc4o3)CC2)cc1 | -2.3% |
| CC(=O)c1ccc(S(=O)(=O)Nc2ccc(-c3ccc(N4CCCCCC4)nn3)cc2)cc1 | -0.9% |
| Cc1cc(C)n2nc(CNS(=O)(=O)c3cccc(Cl)c3)nc2n1 | -1.3% |
| COc1ccc(CC(=O)NCc2nc3cccnc3n2Cc2ccc(C)cc2)cc1OC | -0.4% |
| CC(C)Cc1nn2c(=O)cc(COC(=O)c3ccc4c(c3)OCO4)nc2s1 | -2.3% |
| COCCCNC(=O)Cn1c(=O)n(CCCC(=O)NCc2ccc(C)cc2)c(=O)c2ccccc21 | -5.0% |
| CCOC(=O)c1ccc(NC(=O)c2cc(=O)c3cc(CC)ccc3o2)cc1 | 5.9% |
| COC(=O)c1cc(S(=O)(=O)N2CCN(c3ccc(C)cc3C)CC2)cn1C | -0.6% |
| CCCCCn1c(CCNC(=O)c2ccc(F)cc2)nc2ccccc21 | 0.7% |
| CC(C)c1ccc(NC(=O)c2cn(C3CCCCC3)c(=O)c3c2c2ccccc2n3C)cc1 | 25µM* |
| Cc1ccc(NC(=O)CSc2nc3ccccc3n2CC(=O)N2CCC(C)CC2)cc1C | -6.7% |
| Cc1ccnc2c([N+](=O)[O-])cccc12 | -0.4% |
| Cc1ccc(S(=O)(=O)N2CCN(c3nc(-c4cncs4)nc4ccccc34)CC2)cc1 | 4.0% |

(listing goes on)
| compound | ClpP mod |
| --- | --- |
| CCOc1ccc(NC(=O)CSc2nnc(-c3ccncc3)n2-c2ccccc2)cc1 | 2.8% |
| CCCc1nnc(NC(=O)Cc2coc3cc(C)cc(C)c23)s1 | -1.0% |
| Cc1ccccc1C(=O)OCc1cc(=O)n2c(C)csc2n1 | 3.7% |
| COc1ccc(-c2noc(-c3cccc(OC)c3OC)n2)cc1 | ? |
| Nc1ccc(/C=C2\C=Cc3ccccc32)cc1 | -3.3% |
| COc1ccc(NC(=O)CCn2cnc3onc(-c4ccc(F)cc4)c3c2=O)cc1OC | -1.1% |
| COc1ccc(NC(=O)c2oc3ccccc3c2NC(=O)Cc2coc3cc(C)ccc23)cc1 | 66% |
| COc1ccc(/C=C2\C=Cc3ccccc32)cc1OC | 1.4% |
| O=C(/C=C\c1ccc2c(c1)OCO2)NC1CC(=O)N(c2ccccc2)C1 (stereo unspecified) | 4.3% |
| Cc1ccc(Cl)cc1N1CCN(S(=O)(=O)c2ccc3c(c2)CC(C)N3C(=O)C2CCC2)CC1 (stereo unspecified) | -0.2% |
| Cc1ccc(S(=O)(=O)c2nnn3c2nc(N2CCCCC2)c2sccc23)cc1 | -5.9% |
| CCOC(=O)c1ccc(NC(=O)CSc2ncc(S(=O)(=O)c3ccc(C)c(Cl)c3)c(=O)[nH]2)cc1 | -4.7% |
| CCN1CCN(c2c(S(=O)(=O)c3ccc(OC)cc3)cnc3cc(OC)c(OC)cc23)CC1 | -0.9% |
| COc1ccc(C)cc1S(=O)(=O)NCC(c1cccs1)S(=O)(=O)c1ccc(C)cc1 (stereo unspecified) | 0.9% |
| Cc1cccc(N2C(=O)CSC23C(=O)N(C)c2ccccc23)c1 (stereo unspecified) | -1.9% |
| CCOc1ccccc1CNC(=O)CSc1n[nH]c(-c2ccccc2Cl)n1 | -0.2% |
| CCOc1ccc(-c2nc(SCC(=O)Nc3ccc4c(c3)OCCO4)c(-c3ccc(F)cc3)[nH]2)cc1 | -2.5% |
| COc1ccccc1NC(=O)c1cn(-c2ccccc2)nc1-c1ccccc1 | ? |
| Cc1ccc(CNC(=O)c2cc3c(=O)n4cccc(C)c4nc3s2)cc1 | ? |
